# TRPML1 ag = agonists of human TRPML1 channel. Q9GZU1. TRPML1-expressing cells, Ca2+ dye fluorescence, FDSS; host cell line not named in the record; reference of the full effect not given here. activation, % (concentration not given with the values). 410,000 tested, 0.12% active. AID 624414; in the data active = activation above about 50%; inconclusive = about 30% to 50%; inactive = below about 30%; further: 0% is about no effect; the text of the record puts the active cut at 80%
#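 Tet-induced TRPML1-DL cells, 1,500 per well, cultured overnight, were loaded with a no-wash Ca2+ dye for 45–90 min. Calcium fluorescence was recorded on the FDSS for 110 s after compound addition, before the EC80 agonist (4 uM 54-4) was added.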
# Six1-Eya2 blk = Six1/Eya2 interaction inhibition. AlphaScreen GST-Six1/His-Eya2 binding, biochemical; hits give low values; control for the full effect not named in the record. Q15475+O00167. 360,000 tested, 0.56% active. AID 651725. activity change, % (no concentration beside the values); in the data active = activity change below about -65%; inconclusive = about -30% to -65%; inactive = above about -30%; further: on the % scale 0 is the no-effect control and ±100 the full control effect; compound concentration not given in the record
#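 Six1/Eya2 binding was read as AlphaScreen signal after compounds were pinned into GST-Six1 plus His-tagged Eya2 (5X stock 250/500 nM) in pH 8.0 Tris/NaCl/TCEP buffer, beads added, then incubated 1 h, 37 C, dark.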
# D2 PAM = potentiates the human D2 dopamine receptor allosterically. DiscoveRx D2 beta-arrestin cells, luminescence, 90 min; 100% = 57 uM dopamine signal. potentiation, % (no concentration beside the values). 360,000 tested, 0.23% active. AID 624464; active = potentiation of 50% or more; inconclusive = 30% to 50%; inactive = 30% or less;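 further: compound concentration not given in the record; tested on top of an EC20 dose of dopamine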
# Target sequence (P14416 whole entry, looked up): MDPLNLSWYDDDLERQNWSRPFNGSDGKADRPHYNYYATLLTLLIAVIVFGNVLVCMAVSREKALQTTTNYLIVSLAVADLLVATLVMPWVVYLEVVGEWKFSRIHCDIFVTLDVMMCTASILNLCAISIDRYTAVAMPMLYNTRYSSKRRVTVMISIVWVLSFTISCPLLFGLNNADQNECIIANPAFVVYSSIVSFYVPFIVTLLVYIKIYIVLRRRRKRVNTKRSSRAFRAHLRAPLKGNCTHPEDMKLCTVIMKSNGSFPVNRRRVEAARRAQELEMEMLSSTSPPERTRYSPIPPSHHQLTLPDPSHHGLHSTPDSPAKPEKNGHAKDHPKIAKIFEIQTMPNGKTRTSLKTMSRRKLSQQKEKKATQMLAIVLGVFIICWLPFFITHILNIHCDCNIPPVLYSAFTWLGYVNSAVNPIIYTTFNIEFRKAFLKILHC
#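 PathHunter beta-arrestin assay in DiscoveRx D2 cells. Compounds were added with an EC20 of dopamine (50 nM final) for 90 min at 37 deg C. Luminescence was read 1 h after detection reagent, with 57 uM dopamine as the EC100 control.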
# TRPML1 inh = inhibitors of human TRPML1 channel. Q9GZU1. TRPML1-inducible cells, Ca2+ dye fluorescence, FDSS; hits give low values; inhibition of EC80 agonist-evoked calcium signal. activity change, negative = inhibition, % (no concentration beside the values). 390,000 tested, 0.02% active. AID 624415; in the data active means activity change below about -50%; inconclusive means about -30% to -50%; inactive means above about -30%;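 further: stimulus is agonist 54-4 at its EC80 concentration; on the % scale 0 is the no-effect control and ±100 the full control effect; compound concentration not given in the record; the text of the record puts the active cut at -80%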
#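 Tet-induced TRPML1-DL cells loaded with Ca8 no-wash calcium dye were read kinetically on FDSS. Compound addition was followed by EC80 agonist 54-4 (4 uM final); inhibition was read over 110 s.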
# CtBP-E1A blk = CtBP/E1A binding inhibition. AlphaScreen GST-E1A/His-CtBP binding, 1536-well; hits give low values; control for the full effect not named in the record. 340,000 tested, 0.49% active. AID 651724. activity change, % (test concentration not listed); in the data active means activity change below about -65%; inconclusive means about -30% to -65%; inactive means above about -30%; further: on the % scale 0 is the no-effect control and ±100 the full control effect; compound concentration not given in the record
#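 Protein mix (5X: 125 nM each GST-E1A, His-CtBP) was incubated with pinned compound 2 h at 37 deg C in dark, in 50 mM Tris pH 8.0 buffer with 300 mM NaCl. Glutathione donor and nickel acceptor beads followed; AlphaScreen signal read after 1 h.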
# TRPV1 potentiator = potentiators of human vanilloid receptor 1 (TRPV1) | Q8NER1 | potentiation, % at 8.33 µM | AID 540277 | TRPV1-expressing cells, Fluo-8 calcium influx, capsaicin EC20 potentiation; host cell line not named in the record; control for the full effect not named in the record | 320,000 tested, 0.02% active; active means potentiation above 80%; inconclusive means 30% to 80%; inactive means below 30%; further: 0% is about no effect
#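 Fluo-8 calcium influx in TRPV1-expressing cells, kinetic read (ex 480/em 520 nm). Compound added and read 3 min for agonist activity, followed by capsaicin at EC20 final and 2 min further read for enhancement.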
# Numbers without * were called inactive; ? = inconclusive; / = no result given; & = joins results of further samples. Compounds were not picked by outcome (roughly 0.95% active in at least one column).
No. | SMILES | TRPML1 ag | Six1-Eya2 blk | D2 PAM
1 | COc1ccc(C(=O)N/C(=C\c2cn(S(=O)(=O)N(C)C)c3ccccc23)C(=O)N2CCOCC2)cc1 | -0.2 | 2 | -4
2 | COc1cc2c3nnc(-c4ccc(F)cc4)c-3cn(Cc3cccc(C)c3)c2cc1OC | -0.1 | 7 | -1
3 | CCC(=O)NC(C)c1nc2ccccc2n1C (configuration not stated) | -0.7 | 0 | -3
4 | Cc1nn(C)c(Cl)c1C(N)=O | -0.2 | 6 | 1
5 | CCNC(=S)N1CCN(S(=O)(=O)c2ccc(C)c(C)c2)CC1 | 0.5 | -1 | -3
6 | Cc1cccc(NC(=O)CSCc2cc(=O)n3ccsc3n2)c1C | 1.2 | 3 | -7
7 | C=CCC(CC=C)(NC(=O)c1ccccc1)c1ccccc1 | -0.7 | 2 | -7
8 | CCc1ccc(NC(=O)C2CCCN(S(C)(=O)=O)C2)cc1 (configuration not stated) | -0.4 | 0 | -5
9 | O=C1C(=O)N(c2ccccn2)C(c2cccc(F)c2)/C1=C(/O)c1ccccc1 (configuration not stated) | 1.5 | 23 | -8
10 | COc1cc2c(cc1OC)C(C)N(S(=O)(=O)c1ccc(Cl)nc1)CC2 (configuration not stated) | -0.1 | -2 | -9
11 | COc1ccc(N2C(=O)C3C(c4ccc(C(=O)O)cc4)NC(Cc4ccccc4)(C(=O)O)C3C2=O)c([N+](=O)[O-])c1 (configuration not stated) | -0.8 | 11 | -4
12 | COc1ccc(NC(=O)c2ccc(NCC3CCCO3)c([N+](=O)[O-])c2)cc1 (configuration not stated) | -0.4 | -2 | -7

No. | TRPML1 inh | CtBP-E1A blk | TRPV1 potentiator
1 | 18 | -1 | -12
2 | 7 | -2 | 1
3 | 2 | 2 | -11
4 | -8 | 2 | 1
5 | -16 | / | -23
6 | 11 | 1 | ?
7 | 8 | 11 | -18
8 | -3 | / | -4
9 | -16 | / | 17
10 | 1 | / | 12
11 | 12 | 0 | -13
12 | -2 | -20 | -11

# (list continues)
No. | SMILES | TRPML1 ag | Six1-Eya2 blk | D2 PAM
13 | CNc1cc(N2CCN(S(=O)(=O)N(C)C)CC2)ccc1[N+](=O)[O-] | -0.3 | -5 | -2
14 | C/C(=N\NC(N)=S)C12CC3CC(CC(C3)C1)C2 | -0.7 | -5 | -6
15 | Cc1ccc(-n2nnnc2SCC(=O)Nc2ccc(N3CCN(C)CC3)cc2)c(C)c1 | -0.3 | -19 | -20
16 | c1coc(CN=C2NC(=NCc3ccco3)c3ccccc32)c1 | 1.0 | -7 | -20
17 | O=C(Nc1ccc(Cl)cc1Cl)NC1CCN(S(=O)(=O)c2ccc(F)cc2)CC1 | 2.1 | 2 | 0
18 | CCOC(=O)N1CCC(Nc2c(NCCCN(C)Cc3ccccc3)c(=O)c2=O)CC1 | -0.6 | 4 | -4
19 | Cc1ccc(NC(=O)C2CC(=O)N(C(C)c3ccccc3)C2)cc1 (configuration not stated) | -0.2 | -3 | -31
20 | CCOC(=O)C1(C)CCCCN1C(=O)c1cccc(Cl)c1 (configuration not stated) | -1.4 | -1 | -9
21 | CCc1cccc(NC(=O)c2cccc(S(=O)(=O)N3CCN(C)CC3)c2)c1 | -0.4 | 2 | -11
22 | COc1cc(NC(=O)COC(=O)Cc2ccc(-c3ccccc3)cc2)cc(OC)c1 | 1.0 | -4 | 1
23 | Cc1ccc(OCCNS(=O)(=O)c2cccs2)cc1 | 0.6 | 11 | 9
24 | O=C(c1cccc(-c2ccccc2F)c1)N1CC[C@@H](N2CCC(O)CC2)[C@H](O)C1 | 0.2 | -10 | -4

No. | TRPML1 inh | CtBP-E1A blk | TRPV1 potentiator
13 | 7 | -11 | -3
14 | 0 | 12 | -13
15 | -4 | / | -2
16 | 46 | 10 | -5
17 | -25 | 5 | -1
18 | -1 | 6 | -3
19 | -5 | 29 | -3
20 | / | -4 | /
21 | -15 | 0 | 0
22 | 13 | -6 | 6
23 | 8 | 3 | -9
24 | 8 | -20 | 1

# Other compounds
No. | SMILES | TRPML1 ag | Six1-Eya2 blk | D2 PAM
25 | CC(=O)Nc1ccccc1NC(=O)c1cc(C)cc(C)c1 | -0.1 | -1 | -23
26 | CCOc1ncccc1C(=O)N1CCN(S(=O)(=O)c2ccc3c(c2)OCCO3)CC1 | 2.1 | 0 | 0
27 | Cc1c(-c2cccc(NC(=O)c3ccco3)c2)nc2ncccn12 | 1.1 | -16 | 5
28 | Cc1cc(Cc2ccc([N+](=O)[O-])cc2)c(C)cn1 | 0.2 | 7 | -5
29 | Nc1c([N+](=O)[O-])cc2c3c(cccc13)CC2 | -1.3 | ? | -14
30 | COC(=O)c1ccc(C(=O)OC)c(NC(=S)N2CCN(c3cc(Cl)ccc3C)CC2)c1 | -0.1 | -10 | -2
31 | COc1ccc(-n2c(Cc3cccn3C)nnc2SCC(=O)Nc2nccs2)cc1 | 0.8 | -17 | -2
32 | O=C(CC12CC3CC(CC(Br)(C3)C1)C2)NC1=NCCS1 | 0.1 | 3 | -18
33 | OCc1nc2ccccc2n1CCOc1ccccc1 | -0.3 | -2 | -16
34 | Cc1oc(-c2ccccc2Cl)nc1CS(=O)CC(=O)NCc1ccc2c(c1)OCO2 (configuration not stated) | 0.8 | -1 | -16
35 | CN1CCN(C(=O)CCN2C(=O)c3ccccc3C2=O)CC1 | 0.4 | 0 | -10
36 | CCOC(=O)C1(C)CCCN(C(=O)c2cccc(Cl)c2)C1 (configuration not stated) | -0.3 | 23 | -9

No. | TRPML1 inh | CtBP-E1A blk | TRPV1 potentiator
25 | 2 | 0 | -5
26 | -21 | -5 | -4
27 | 9 | -2 | -9
28 | -8 | -9 | -12
29 | / | ? | /
30 | 10 | 7 | 1
31 | -19 | -12 | 3
32 | 12 | 11 | 9
33 | 19 | / | /
34 | 13 | / | 28
35 | 12 | 6 | 1
36 | -6 | 26 | /

# Continuation.
No. | SMILES | TRPML1 ag | Six1-Eya2 blk | D2 PAM
37 | Cc1cc(-c2ccccc2)nc(N/N=C/c2ccc(N(C)C)cc2)n1 | -0.8 | -29 | -10
38 | Cc1c(Br)c([N+](=O)[O-])nn1C(C)C(=O)N1CCCc2ccccc21 (configuration not stated) | -0.7 | -1 | -1
39 | O=C(CSCc1ccc(Cl)cc1Cl)Nc1nccs1 | 0.8 | 0 | -6
40 | Cc1ccc(C(=O)NC2CCCCNC2=O)cc1C (configuration not stated) | 0.1 | -19 | -7
41 | CSc1ccc(CSCC(=O)N2CCN(S(=O)(=O)c3ccc(C)cc3C)CC2)cc1 | 6.4 | -11 | 0
42 | CCN(CC)c1ccc(N=Cc2c(C)[nH]c3ccccc23)cc1 | 0.1 | ? | -19
43 | O=C(O)C1Nc2c(C(=O)N3CCOCC3)cccc2C2C=CCC12 (configuration not stated) | 0.3 | -74* | ?
44 | O=C(CN1CCCCC1)N1CCCc2c1c(=O)oc1ccc(OCc3ccccc3)cc21 | 0.4 | -23 | -10
45 | COc1ccccc1C(=O)Nn1c(-c2cccs2)nc2ccccc2c1=O | 7.3 | -1 | -3
46 | CC(C)CNC(=O)C1(C)CCCN1C(=O)CSc1ccccc1 (configuration not stated) | -0.2 | 2 | -3
47 | COc1ccccc1Nc1nc(N)nc(CN2CCCCC2)n1 | -1.1 | 0 | -26
48 | O=C(NC1CCCCC1)C(c1ccco1)N(C(=O)c1csnn1)C1CCCC1 (configuration not stated) | -0.4 | 0 | -6

No. | TRPML1 inh | CtBP-E1A blk | TRPV1 potentiator
37 | 26 | / | /
38 | 11 | -3 | 19
39 | -14 | / | 26
40 | -2 | 0 | 5
41 | 9 | -6 | -10
42 | ? | ? | 20
43 | 6 | -29 | 8
44 | 53 | -13 | -29
45 | -14 | -10 | -7
46 | / | 6 | /
47 | -5 | 8 | -6
48 | -6 | -13 | -19

# Next part.
No. | SMILES | TRPML1 ag | Six1-Eya2 blk | D2 PAM
49 | CCCN1CCC(=O)N(CCN=[N+]=[N-])CC1 | 0.0&-0.4 | 20 | -47
50 | COc1ccc(C2(C(=O)NCCN3CCOCC3)CCOCC2)cc1 | 3.0 | 2 | -4
51 | Nc1nncn1C(=O)CCc1ccccc1 | -0.8 | -2 | -10
52 | O=C(Nc1ccccc1NS(=O)(=O)c1ccc(F)cc1)C1CCCC1 | -0.5 | -4 | -5
53 | O=C(c1cn(-c2ccccc2)nc1-c1ccc(F)cc1)N1CCOCC1 | -0.2 | 6 | -16
54 | Cc1ccc(O)c(C(=O)c2cnc3c(c2)c(C)nn3-c2ccccc2)c1 | 0.2 | -25 | -8
55 | O=C(N[C@H]1CCC(=O)N([C@H](CSc2ccc(Br)cc2)Cc2ccccc2)CC1)OCc1ccccc1 | 2.3&0.1 | 5 | -12
56 | COC(=O)[C@@]1(C)[C@H]2C(=O)N(Cc3ccccc3)C(=O)[C@H]2[C@H]2CN=C(SCc3ccc(Cl)cc3)N21 | 1.6 | 0 | -5
57 | COc1ccc2c(c1)SCC(=O)N2C | 0.2 | 3 | 2
58 | CC12CC3(C)CC(C)(C1)CC(C(=O)NC(=S)N1CCCC1)(C2)C3 | -0.1 | 23 | -3
59 | Cc1ccccc1NS(=O)(=O)c1ccc(C(=O)N2CCN(c3ccccc3O)CC2)cc1 | -0.2 | -6 | 25
60 | [N-]=[N+]=NCC/C=C\C1NS(=O)(=O)OCC1O (configuration not stated) | -0.6 | 11 | -1

No. | TRPML1 inh | CtBP-E1A blk | TRPV1 potentiator
49 | -12 | 4 | -1
50 | -11 | 3 | -20
51 | -1 | -5 | -8
52 | -11 | -23 | 1
53 | 5 | 0 | 5
54 | 38 | -14 | 5
55 | 25 | -17 | /
56 | -3 | 7 | /
57 | 11 | 11 | 11
58 | -1 | -13 | 0
59 | -5 | -3 | -2
60 | 1 | 4 | 7

# From PubChem
